# T cruzi inh: inhibitors of intracellular T. cruzi growth, primary screen, luminescence, NIH3T3 host cells; inhibition, % (concentration not given with the values); actives 1.4% (n = 300,000); T. cruzi beta-gal in NIH3T3, 90 h; AID 1885, 2009;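 active means mean inhibition across valid replicates above about 55%, limit read from the data; inconclusive means mean below that limit but half or more replicates reach it; inactive means mean below it, under half of replicates reach it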;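 further: signal also drops with host cell toxicity which is not excluded here; 0% = plate median of DMSO wells and 100% = zero luminescence signal; higher percent means less beta-gal luminescence so fewer parasites; stock transfer was 50 nL into about 50 µL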
# B2AR ag: beta2AR agonists driving receptor internalization, primary screen, cell-based, FAP fluorogen, flow cytometry; Am2.2-beta2AR cells; reference of the scale not given here; actives 0.43% (n = 340,000); response, % (test concentration not listed); AID 504454, 2011; Beta-2 adrenergic receptor (Homo sapiens), P07550;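 active means response above a set limit, near 3 SD of response in nonfluorescent compounds, cut at about 42% in these data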;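 further: stock transfer was 100 nL into about 11 µL; a reference agonist was the positive control; negative values mostly stem from fluorescent compounds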
# Target sequence (P07550 whole entry, looked up): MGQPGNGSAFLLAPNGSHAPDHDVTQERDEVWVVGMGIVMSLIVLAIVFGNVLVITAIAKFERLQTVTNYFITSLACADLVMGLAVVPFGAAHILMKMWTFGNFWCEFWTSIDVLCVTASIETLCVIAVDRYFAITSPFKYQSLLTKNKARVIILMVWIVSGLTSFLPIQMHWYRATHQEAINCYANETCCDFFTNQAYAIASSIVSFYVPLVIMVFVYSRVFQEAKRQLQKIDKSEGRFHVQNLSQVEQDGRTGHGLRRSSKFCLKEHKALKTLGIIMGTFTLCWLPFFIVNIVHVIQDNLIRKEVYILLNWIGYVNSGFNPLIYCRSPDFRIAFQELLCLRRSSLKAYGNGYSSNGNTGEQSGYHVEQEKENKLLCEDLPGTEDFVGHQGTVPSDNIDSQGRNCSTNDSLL
# ALR H2O2 inh: inhibitors of human ALR sulfhydryl oxidase, primary screen, biochemical, H2O2 detection, HRP-luminol luminescence, single point; FAD-linked sulfhydryl oxidase ALR (Homo sapiens), P55789; inhibition, % (concentration not given with the values); purified ALR, DTT oxidation; actives 3.8% (n = 290,000);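 active means mean and each replicate at 75% or more; inconclusive means only one of the two met; inactive means neither met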;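 further: stock transfer was 7.5 nL into about 7.5 µL; 0% = neutral wells and 100% = wells with inactivated enzyme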
# Target sequence (P55789 whole entry, looked up): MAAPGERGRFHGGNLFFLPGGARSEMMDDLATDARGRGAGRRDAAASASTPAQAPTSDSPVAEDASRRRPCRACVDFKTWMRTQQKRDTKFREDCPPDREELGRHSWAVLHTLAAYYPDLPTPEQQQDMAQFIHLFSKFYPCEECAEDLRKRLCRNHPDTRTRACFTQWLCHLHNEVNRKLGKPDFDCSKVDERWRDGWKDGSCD
# Beta cell apopt: inhibitors of cytokine-induced beta cell apoptosis, primary screen, luminescence | AID 435005, 2010 | INS-1E cytokine-induced death, ATP luminescence, 48 h; percent of positive-control rescue, neutral wells zero | actives 0.8% (n = 300,000) | protection from apoptosis, % (test concentration not listed);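 active means all replicates at 75% or more, or half of them and the mean; inconclusive means half reach 75% but not the mean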;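 further: 0% = cytokine-treated negative control wells and 100% = positive control rescue; higher means more ATP so stronger rescue from cytokine killing; wells of about 40 µL received 100 nL stock; the first replicate is given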
# Calb FLC: C. albicans growth inhibition with fluconazole, primary screen, CaCi-2 strain, Alamar Blue fluorescence; growth inhibition, % (concentration not given with the values); actives 0.57% (n = 300,000); C. albicans CaCi-2 (fluconazole-resistant clinical isolate) + fluconazole, 48 h;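 active means most replicates above 75%; inconclusive means exactly half above 75%; inactive means most below 75%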;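 further: all wells also contain fluconazole at 8 µg/ml as a sub-toxic cotreatment; 0% = median of DMSO wells and 100% = median of geldanamycin control wells; wells of about 8 µL received 7.5 nL stock; the first replicate is given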
# Bfl-1 A1 inh: caspase 3/7 activation in MEF A1-2A-BIM cells, primary screen, A1 inhibitor project, cell-based, luminescence, HTS; Caspase-Glo 3/7 luminescence, 3 h; percent of clofoctol response, vehicle zero; caspase activation, % (concentration not given with the values); actives 0.066% (n = 330,000); AID 2462, 2010;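 active means over half of replicate activation scores above 10%, or exactly half above 10 with the replicate mean above 10; inconclusive means replicate mean below 10 yet half the replicates above 10; inactive means over half of replicates below 10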;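 further: wells of about 30 µL received 50 nL stock; many hits fall short of the cut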
# rRNA inh HTS: reduced GFP signal of wild-type E. coli, primary screen, bacterial rRNA inhibitor project, GFP/RFP fluorescence, OD600, single point. actives 1.6% (n = 350,000). AID 720706, 2013. E. coli WT GFP vs humanized-ribosome RFP mutants, 24 h; hits give low values; DMSO median 0, no signal -100. GFP signal change (wild-type ribosome), % (test concentration not listed);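 active means significant combined selectivity score with lowered wild-type GFP, culture density cut under 30%, mutant RFP and density less affected; inactive means any of these conditions unmet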; further: one replicate is shown; some compounds called inactive have numbers as strong as hits
# LANA-H2B inh: blockers of LANA interaction with H2A/H2B – biochemical, FP readout, HTS, primary screen | cell-free LANA-H2A/H2B peptide, fluorescence polarization | Protein LANA1 (Human herpesvirus 8 type P (isolate GK18)), Q9QR71 | AID 2629, 2010 | actives 0.6% (n = 320,000) | inhibition, % (no concentration beside the values); in the data active means inhibition mostly above about 10%, no sharp cut-off; inactive means mostly below about 6.7%;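 further: stock transfer was 7.5 nL into about 10 µL; 0% = median of vehicle wells and 100% = median of positive control wells; one replicate is shown; the record names a cut of 25% in any replicate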
# rRNA inh HTS OD600: second read-out of rRNA inh HTS, no call of its own (marks repeat the call); OD600 change, %; measured here: OD600 growth;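 optical density of the mix in the first replicate; 0 = DMSO median and -100 = no signal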
# rRNA inh HTS RFP: further read-out of rRNA inh HTS, marked with its call; RFP signal change, %; measured here: RFP humanized mutant strains;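 first replicate; 0 = DMSO median and -100 = no signal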
# An asterisk follows results filed as active; ? = inconclusive; / = no result given. Not all compounds are listed. The share of hits here may be higher or lower than overall.
SMILES	T cruzi inh	B2AR ag	ALR H2O2 inh	Beta cell apopt	Calb FLC	Bfl-1 A1 inh	rRNA inh HTS	rRNA inh HTS OD600	rRNA inh HTS RFP	LANA-H2B inh
COC(=O)c1ccc(C2C(Oc3ccccc3)C(=O)N2CCc2ccc(OC)c(OC)c2)cc1 (centres undefined)	12	3	3	2	-2	-1.2	/	/	/	1.2
Cc1csc(NC(=O)CSc2nnc3ncccn23)n1	-1	-11	/	/	17	0.1	/	/	/	-3.3
COCCNC(=O)C(c1ccc(C)cc1)N(CCOC)C(=O)CCC(=O)Nc1ccccn1 (centres undefined)	2	-6	/	-5	0	0.5	0	12	-3.1	6.8
C(=N\Nc1nc(N2CCOCC2)nc(N2CCOCC2)n1)/c1ccco1	9	/	-5	-3	26	0.2	/	/	/	8.2
O=[N+]([O-])c1cccc(-c2csc(Nc3ccccc3)n2)c1	28	13	6	10	-29	0.8	-17	-27	-2.8	-1.2
O=C(NCc1ccc(F)cc1Cl)C1CCN(S(=O)(=O)N2CCC3(CC2)OCCO3)CC1	-3	2	0	7	-32	0.9	/	/	/	-2.2
Cc1nc2cc(-c3ccc(Cl)cc3)nn2c(NCCN(C)C)c1C	?	1	65	4	6	-0.6	5	12	-0.3	0.4
COCCn1c(SCC(=O)NNC(=O)c2ccccc2)nc2ccccc21	/	-4	-1	-5	/	0.5	3	3	1.3	-2.0
CC(OC(=O)c1ccco1)C(=O)Nc1ccc(C(F)(F)F)cc1 (centres undefined)	/	2	-2	1	/	1.2	1	-4	-4.6	-1.1
CC(C)(C)[C@H]1COC(=O)CCC/C=C/C[C@H](CC(=O)N(CCO)Cc2ccccc2)C(=O)N1	/	-4	-2	-4	/	0.3	-8	2	-4.2	1.0
O=C(NNS(=O)(=O)c1ccc([N+](=O)[O-])cc1)c1ccc([N+](=O)[O-])cc1	1	-2	-4	0	-4	0.6	-6	-15	-3.3	2.5
CC(C)(c1ccccc1)c1ccc(OCCN)cc1	7	9	/	0	-23	0.1	-27	-39	-0.2	-1.0
Oc1ccc2ccccc2c1CNc1cnc2ccccc2c1	-18	8	-21	-2	17	1.3	/	/	/	2.3
Clc1ccc(-c2c[n+]3c(n2-c2ccccc2)SCC3)cc1	46	1	/	19	-4	1.7	-47	-74	-28	0.1
CCC(=O)Nc1ccc2c(c1)ncn2-c1ccccc1OC	1	-5	1	-2	-2	-0.5	/	/	/	3.0
CCOc1ccccc1-c1nc(-c2cccc(Br)c2)no1	-7	5	-8	1	-15	-0.6	8	7	-1.4	-2.0
CC(=O)N1CCN(c2ccc(Oc3nnnn3-c3ccccc3)cc2)CC1	-20	0	5	1	2	-0.1	/	/	/	-2.3
CCC1(c2ccccc2)NC(=O)N(CC(=O)Nc2cc(S(=O)(=O)N3CCCCCC3)ccc2OC)C1=O (centres undefined)	29	14	-5	7	17	-0.5	-16	-19	-2.6	0.5
O=C(Nc1ccc2c(c1)CCC2)c1ccccc1	1	8	93*	14	-10	-6.2	/	/	/	-0.2
Cc1cc(C)cc(N(CC(=O)NCCSCc2ccco2)S(C)(=O)=O)c1	-2	-1	-4	/	16	0.6	-4	2	-3.2	-7.2
Cc1ccccc1OCC(=O)N/N=C/c1ccc(N2CCOCC2)o1	/	6	59	-5	4	-0.8	16	-1	12	-2.2
C=CC[C@@H](CC(=O)NCCO)C(=O)NC[C@H](OC(=O)[C@@H](CC=C)CC(=O)OC(C)(C)C)c1ccccc1	/	5	-6	4	/	-1.8	5	11	-8.5	-0.6
COc1ccc(OC)c(S(=O)(=O)N2CCCC(C(=O)N3CCCC3)C2)c1 (centres undefined)	4	-5	-13	-2	20	-1.2	14	11	3.9	4.8
Cc1cc(NS(=O)(=O)c2cn(C)nc2C)no1	-2	-2	-1	3	/	0.2	11	12	-1.6	2.6
Cn1c(C(=O)NCC2CCCO2)cc2oc3ccccc3c21 (centres undefined)	-15	-13	-3	-4	5	-0.8	/	/	/	-3.1
O=C(CSc1nc2ccccc2o1)N1CCN(C(=O)c2ccco2)CC1	2	-2	-64	0	-1	0.0	/	/	/	-6.9
C=CCn1c(-c2ccc(Cl)cc2)cnc1SC(C)C(N)=O (centres undefined)	-6	-2	39	2	2	0.1	-18	-16	-2.8	2.1
CCOc1ccc2nc(N(CCN(C)C)C(=O)c3ccc4c(c3)CCCC4)sc2c1	?	2	-10	3	-9	0.8	/	/	/	-5.0
CCN1C(=O)CSC1=Nc1cccc(C(=O)O)c1	5	2	-4	-2	-5	1.1	22	12	2.4	1.3
O=C1CN(CC(=O)N2CCOCC2)c2ccccc2O1	-8	/	48	-3	0	0.5	/	/	/	1.0
CC(C)OC(=O)NCCOC(=O)Nc1ccccc1Cl	-10	-4	-2	4	?	0.1	-2	9	8.8	-1.7
Cc1ccc(C)c(NC(=O)CN(C)C(=O)Cc2ccccc2)c1	3	5	-1	-1	0	0.1	/	/	/	1.3
CCOc1ccc(NC(=O)c2sc(NC(C)=O)c(C(=O)OC)c2C)cc1	-3	1	-10	4	-18	0.4	16	11	-0.1	-7.3
O=C(Nc1ccc(-c2nnc(-c3ccccc3)o2)cc1)C(F)(F)F	3	-3	-7	-1	-1	-7.2	/	/	/	-3.1
COc1ccc(C(=O)COC(=O)CCc2nc3ccccc3[nH]c2=O)cc1Br	-5	2	-1	/	1	-0.4	2	4	4.1	0.1
CCCN1C(=O)CSC1=Nc1ccccc1	12	5	-13	-4	-1	0.0	11	1	-3.0	7.9
COc1cc(-c2noc(C)c2C#Cc2ccccn2)cc(OC)c1OC	-9	-12	0	2	9	1.2	-33	-35	2.0	3.0
O=C(NCCCNC(=O)c1cc(Cl)ccc1Cl)c1ccco1	-14	4	-3	1	14	0.1	-1	6	-0.7	-2.1
CC(=O)N1CCN(c2ccccc2NC(=O)COc2ccccc2C)CC1	12	-28	/	0	?	1.3	-12	-11	5.1	2.3
CCc1c(C)sc(NC(NC(C)=O)(C(=O)OC)C(F)(F)F)c1C#N (centres undefined)	0	-2	4	-2	2	-0.5	2	-3	-2.5	0.4
CCOC(=O)C1=C(C)NC2=C(C(=O)CC(C)(C)C2)C1c1coc2ccccc2c1=O (centres undefined)	-2	-6	/	3	-10	-0.2	/	/	/	3.0
Cc1ccc(-c2csc(N(Cc3ccco3)C(=O)c3cccs3)n2)cc1	/	2	3	2	/	0.8	/	/	/	7.9
O=C(NC1CC1)C1CCN(C2CCN(C(=O)c3ccc4cccc(F)c4n3)CC2)CC1	-1	-8	0	-2	8	1.3	4	4	-0.8	-2.4
COc1ccc(C(=O)NCCCNC(=O)c2ccccn2)cc1	-8	0	1	-4	5	-0.4	9	12	3.2	-6.5
C=CCN(CC(=O)NC1CCS(=O)(=O)C1)S(=O)(=O)c1ccccc1C(F)(F)F (centres undefined)	-11	3	-6	1	-17	-0.5	11	21	-0.2	-2.0
Cc1c(Cl)cccc1NC(=S)NN1CCOCC1	-13	5	7	3	-9	0.1	/	/	/	-1.2
O=C1CCC(C(=O)Nc2ccccc2)N1 (centres undefined)	-5	3	0	-2	-39	0.8	/	/	/	-0.4
CN1CCC(NCCC(c2ccc(F)cc2)c2ccc(Cl)cc2)CC1 (centres undefined)	48	23	-2	22	-2	-1.7	3	-13	4.3	-2.5
O=C(O)c1nn(-c2ccccc2)ccc1=O	-12	-23	-3	-5	1	-1.8	/	/	/	0.0
Cc1ccc(/C=C/C(=O)OCC(=O)NCCN2C(=O)CSC2=O)o1	-17	-2	3	-2	-6	0.1	11	3	1.7	-0.2

# Next section:
SMILES	T cruzi inh	B2AR ag	ALR H2O2 inh	Beta cell apopt	Calb FLC	Bfl-1 A1 inh	rRNA inh HTS	rRNA inh HTS OD600	rRNA inh HTS RFP	LANA-H2B inh
COc1ccc(NC2CCCN(C(=O)c3ccncc3)C2)cc1 (centres undefined)	-8	-1	96*	-2	-8	-0.4	-20	-17	1.5	-0.8
Cc1ccsc1/C=C/c1ccc2ccccc2n1	16	-10	-8	14	-25	0.6	/	/	/	-0.9
Cc1nnc(C)n1/N=C/c1cccc([N+](=O)[O-])c1	5	-5	-1	0	-42	0.5	10	10	-11	2.0
Cc1ccc(N)cc1O	/	0	73	-2	/	0.3	-5	4	-2.4	0.4
CC(NC(=O)c1ccc(OC2CCN(C(=O)c3cccnc3)CC2)cc1)C1CC1 (centres undefined)	-10	-1	-9	-2	-20	0.3	12	6	-0.2	6.1
CC(C)Oc1ccccc1C1CC(=O)Nc2c1c(=O)n(C)c(=O)n2C (centres undefined)	-1	/	-8	/	-6	0.4	/	/	/	0.4
Cc1ccc(C(=O)NCC(c2ccc(F)cc2)N2CCOCC2)s1 (centres undefined)	/	-5	-6	-1	/	0.9	7	2	-1.0	0.9
Cc1cccn2c(=O)nc(SCC(=O)NCc3ccc(F)cc3)nc12	-7	-3	-19	/	-5	-1.7	8	7	-2.1	-0.4
CCN(CC)S(=O)(=O)c1ccc(N2CCOCC2)c(NC(=O)CNCCc2ccccc2)c1	17	7	-2	2	-3	-0.3	-19	-24	24	0.0
CC(=O)N1c2ccccc2C2(C)C(C1(C)C)C2(Cl)Cl (centres undefined)	-9	7	-2	0	1	0.0	-10	3	0.9	1.1
Cc1cccc(NC(=O)N2CCCC(CNC(=O)c3ccccc3Cl)C2)c1C (centres undefined)	8	6	-9	-5	-8	0.5	3	10	-1.1	4.3
CC(=O)c1ccc(N2CCN(C(=S)Nc3ccc(Cl)c(Cl)c3)CC2)cc1	-2	-3	0	/	10	2.0	-58	-78	-20	-3.4
CCOC(=O)N1CCN(CC(=O)Nc2ccc(C)cc2)CC1	-12	10	0	0	-3	0.5	5	1	-6.8	-0.8
CC(C)CC(=O)NS(=O)(=O)c1ccc(NS(C)(=O)=O)cc1	-8	8	-2	-2	26	-0.3	23	13	-1.5	4.6
CCOc1ccc(N2CC(C(=O)NCc3ccccn3)CC2=O)cc1 (centres undefined)	7	0	0	-3	-2	0.6	9	5	-2.7	13
COC(=O)c1ccccc1OCCCOc1ccc(C)cc1OC	-8	/	-2	/	13	-0.8	/	/	/	-4.1
CCCCn1c(=O)c2c(c3ccccc31)OCC(=O)N2	4	/	9	-3	-6	0.6	/	/	/	-2.0
O=C(NCc1ccc(F)cc1)c1ccc(N2CCc3ccccc32)c([N+](=O)[O-])c1	34	-8	-2	3	12	0.3	-7	-12	-2.8	-7.9
